# High-throughput results deposited in PubChem by Southern Research Institute.
# Mtb growth: Mycobacterium tuberculosis H37Rv growth inhibition, cell based, confirmatory dose response (AID 1949); M. tuberculosis H37Rv growth inhibition; most inactive calls were filed without a number and no value below 0 was filed; inhibition, % at 10 µg/mL, or IC50 in µg/mL where a hit was titrated; hit rate 1.6% among 100,000;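 active = confirmed in a dose series; inconclusive = about 50% or more but not retested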;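 note: bacteria grown 7 days with compound before Alamar blue readout; 0% = untreated bacteria and 100% = reference antibiotic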
# The depositor's hits bear a star; i = inactive; ? = inconclusive. This is a subset. The share of hits here may be higher or lower than overall.
SMILES,Mtb growth
O=C1CNCc2[nH]c3ccccc3c2N1c1ccccc1,i
CCOC(=O)c1sc(NC(=O)CN2C(=O)c3cccc4cccc(c34)C2=O)nc1C,i
CCOc1ccc(CC(=O)c2ccc(O)cc2O)cc1,1%
CC(C)C(=O)Nc1ccc(C(=O)NNC(=O)C(c2ccccc2)c2ccccc2)cc1,i
O=C(O)CSCc1c(F)cccc1Cl,i
O=C(Cc1ccc(-c2ccccc2)cc1)NCc1cccnc1,i
COc1cccc(C2Nc3ccc(C(=O)O)cc3C3C4CCC(C4)C23)c1 (stereo not drawn),2%
COc1ccc(OCC(O)CNC(=O)c2ccc(OC)cc2)cc1 (stereo not drawn),i
O=C(Nc1ccc(Cl)cc1C(=O)NCc1ccccc1)c1ccco1,i
COC(=O)c1ccc(NC(=O)CC2C(=O)N(c3ccc(Cl)cc3)C(=S)N2CCN2CCOCC2)cc1 (stereo not drawn),14%
O=C(COc1ccc(Br)cc1Cl)N1CCN(c2ccccc2F)CC1,i
CS(=O)(=O)N1CCN(c2ccc(NC(=O)c3cc4ccccc4o3)cc2)CC1,1%
Cc1cccc(-n2c(SCC(=O)N3CCOCC3)nc3ccc(I)cc3c2=O)c1,i
Cc1ccccc1C(=O)N1CCN(c2ccc(NC(=O)c3ccc(Br)cc3)cc2)CC1,i
Cc1cc2oc(=O)c3c(c2cc1OCC(N)=O)CCCC3,i
O=C(CSc1nnc(COc2ccccc2)n1-c1ccccc1)Nc1ccc(Br)cc1,1%
CCOC(=O)c1ccc(N2C(=O)CC(SCC(N)C(=O)OCC)C2=O)cc1 (stereo not drawn),i
CC(C)OC(=O)c1cc(NC(=O)Nc2ccc(F)cc2F)cc(C(=O)OC(C)C)c1,i
CC(=O)c1ccc(NC(=O)C2CC(=O)N(Cc3ccccc3)C2)cc1 (stereo not drawn),i
CCc1ccc(N(CC(=O)Nc2ccc(Cl)cc2)S(C)(=O)=O)cc1,i
CCC1CCc2c(sc(NC(=O)Cc3ccc(OC)cc3)c2C(N)=O)C1 (stereo not drawn),i
CC(C)c1ccc(NC(=O)c2ccc3c(c2)C(=O)N(Cc2cccnc2)C3=O)cc1,i
CCc1ccccc1OCC(=O)Nc1ccc(N(C)C)cc1,0%
O=c1cc(C(F)(F)F)c2c([nH]1)sc1c(=O)cc(C3CC3)[nH]c12,i
COc1cc([N+](=O)[O-])ccc1NC(=S)Nc1cccc(C(=O)O)c1,i
# New compounds follow:
SMILES,Mtb growth
CCN(CC)CCNc1ncnc2ccc(Br)cc12,i
CCOC(=O)C(C)Sc1nc2ccc(I)cc2c(=O)n1-c1ccccc1OC (stereo not drawn),9%
CCS(=O)(=O)c1nc(S(=O)(=O)c2ccc(C)cc2)c(NCc2ccco2)s1,i
Cc1cc(C)c2c(N)c(S(=O)(=O)c3ccccc3)sc2n1,i
O=C(NCc1ccco1)C1CC(c2ccc(Cl)c(Cl)c2)=NO1 (stereo not drawn),i
COc1cc(C2C3=C(CCCC3=O)NC3=C2C(=O)CCC3)cc(Br)c1OC,i
Clc1ccc(-c2csc(-c3cccnc3)n2)cc1,5.8µg/mL*
CCCCOc1ccc(C(=O)Nc2ccccc2C(=O)Nc2ccccc2C)cc1,i
Cc1c(OCc2ccc(F)cc2F)ccc2c3c(c(=O)oc12)CCC3,i
CCOc1cc(C(=O)Nc2ccc3oc(-c4ccc(OC)cc4)nc3c2)cc(OCC)c1OCC,i
COc1ccc(C(=O)Nc2ccc(C(=O)NCCc3ccc(OC)c(OC)c3)cc2)cc1,i
O=C(c1cc(-c2ccccc2)on1)N1CCN(C(=O)c2ccco2)CC1,i
O=C(Nc1ccccn1)c1ccc(Cl)s1,12%
O=C(O)c1ccc(-c2cnc3ccccc3n2)cc1,i
COC1(c2ccccc2)NC(=S)NN=C1c1ccccc1 (stereo not drawn),i
CCOC(=O)c1c(NC(=O)CSc2ncn[nH]2)sc2c1CCCC2,0%
COc1ccc(S(=O)(=O)Nc2ccc(S(=O)(=O)NC(C)(C)C)cc2)cc1,i
CC(=O)c1c(N2CCN(C(=O)c3ccco3)CC2)nc(=S)n(-c2ccccc2)c1C,0%
Cc1ccc(NC(=O)C23CCC(C)(C(=O)C2)C3(C)C)cc1C (stereo not drawn),2%
NS(=O)(=O)c1ccc(NC(=O)CSc2ncn[nH]2)cc1,i
COc1cc(Br)ccc1NC(=O)c1ccncc1,i
COc1ccc(C(=S)NCc2ccc3c(c2)OCO3)cc1OC,i
N#CCSc1nc2ccccc2c(=O)n1Cc1ccco1,i
COc1ccc(NC(=O)Nc2nnc(Cc3ccccc3)s2)cc1,i
CC(C)(C)OC(=O)c1sc2nc3c(cc2c1N)CCCC3,7%
# Carrying on.
SMILES,Mtb growth
CCOc1ccc(-c2c(C)n([O-])c3c([n+]2=O)CCCCC3)cc1,i
CCc1ccccc1NC(=O)CN(Cc1ccc(Cl)cc1)S(=O)(=O)c1ccc(C)cc1,i
CCOc1ccccc1Oc1c(C)oc2cc(OC(=O)C(C)(C)C)ccc2c1=O,i
O=C(Nc1ccc(S(=O)(=O)Nc2ccccc2)cc1)c1cccs1,i
CCC(C)N1CCN(Cc2cccc(OC)c2)CC1 (stereo not drawn),i
Cc1ccc(NC(=O)CCN2C(=O)c3ccccc3C2=O)cc1,i
COc1ccc(C(=O)Nc2sc(C)c(C)c2C(N)=O)c(OC)c1,i
O=C(CSc1ccccn1)Nc1cc(Cl)cc(Cl)c1,2%
O=C(NC(=S)Nc1ccccc1N1CCOCC1)c1ccc(Cl)cc1,i
COC(=O)c1cccc(NC(=O)C2CN(S(=O)(=O)c3ccccc3)CCN2S(=O)(=O)c2ccccc2)c1C (stereo not drawn),i
COc1ccc(NC(=O)CSc2nc(C)cc(C)n2)c([N+](=O)[O-])c1,?
CC(C)(C)c1ccc(OC(=O)COc2ccc(Cl)cc2)cc1,10%
S=C(Nc1cccnc1)NC1CCCC1,i
CCCN1CCC(NC(=S)Nc2ccc(C(C)CC)cc2)CC1 (stereo not drawn),i
Cc1cccc(-c2noc(C3CCCCC3)n2)c1,i
CSc1ccc(NC(=O)c2sc3nc(-c4ccc(F)cc4)ccc3c2N)cc1,i
O=C1CCCC2=C1C1(CCCCC1)N=C(Nc1nc3ccccc3o1)N2,i
CC(NC(=O)CSc1nnc(-c2ccccc2)n1Cc1ccccc1)c1ccccc1 (stereo not drawn),i
Cc1cc(NC(=O)c2ccc(N(C)S(=O)(=O)c3ccccc3)cc2)no1,i
Cc1nc(C(=O)Nc2nnc(-c3ccccc3)s2)cc2c1[nH]c1ccccc12,36%
CN(c1ccc(C(=O)NCCSC2CCCCC2)cc1)S(=O)(=O)c1ccccc1,7%
COC(=O)c1ccc(C(=O)OC)c(NC(=O)CCC2CCCCC2)c1,5%
CCOc1ccc(Br)cc1S(=O)(=O)/N=C(/N)c1ccccc1,i
COc1cc(Br)cc2cc(C(=O)NC(C)(C)C)c(=O)oc12,i
COC(=O)c1sc(NC(=O)c2cc(C)c(-c3ccccc3)s2)nc1C,3%
# (listing goes on)
SMILES,Mtb growth
O=C(Nc1cccc(C(F)(F)F)c1)c1ccc2snnc2c1,i
COC(=O)c1ccc(-n2nnnc2SCC(=O)Nc2ccc(F)cc2)cc1,i
O=C(NC(=S)Nc1ccc2[nH]c(=O)[nH]c2c1)c1cc(I)ccc1Cl,i
CCC(Oc1ccccc1)C(=O)NCCCN1CCOCC1 (stereo not drawn),i
O=C(NCc1ccc2c(c1)OCO2)Nc1ccc([N+](=O)[O-])cc1,i
COc1ccc(S(=O)(=O)Nc2ccc(Br)cc2)c(Cl)c1Cl,i
C=CCn1c(CSc2nc(C)cc(C)n2)nnc1SCC(=O)Nc1nc(C)c(C(=O)OCC)s1,i
O=C(Nc1cccc(NC(=O)c2ccco2)n1)c1ccco1,i
COC(=O)c1cccc(NC(=O)COc2cccc([N+](=O)[O-])c2)c1,i
Cc1cc(NS(=O)(=O)c2ccc(NC(=O)c3ccc(C)c(C)c3)cc2)no1,3%
COc1ccc(C(=O)NCCCN2CCOCC2)cc1OC,1%
CCSCc1nnc(SCC(=O)Nc2ccc(F)cc2)n1CC,i
COC(=O)c1cc2c(nc1SCC(=O)CC#N)CCC2,i
CCOc1cc(CNCc2ccccc2)c(Cl)cc1OC,i
Cc1cc(NC(=O)c2ccc(CN3CCOCC3)cc2)ccc1Br,i
Cc1nnc(SCC(=O)Nc2ccc(C(C)(C)C)cc2)s1,i
CCc1ccccc1NC(=O)c1ccccc1F,i
O=C(CC(Nc1cccc(Cl)c1)c1ccccc1)c1ccc(F)cc1 (stereo not drawn),22%
CN(C)CC(=O)Nc1ccccc1Cl,i
Cc1cc(=O)oc2cc(OCc3ccccc3Cl)ccc12,0%
CC(C)=CCOc1ccc2c(C(F)(F)F)cc(=O)oc2c1C,i
CC(=O)c1cccc(NC(=O)C(C)c2ccccc2)c1 (stereo not drawn),i
COC(=O)c1ccccc1NC(=O)Nc1ccc(C)cn1,i
O=C(NCCc1cccc(Cl)c1)C1CCCCC1,i
CSc1cccc(NC(=O)CN(c2ccccc2)S(=O)(=O)c2ccccc2)c1,i

# Part of the list above in a different format:
molecule	Mtb growth
Cc1nnc(SCC(=O)Nc2ccc(C(C)(C)C)cc2)s1	i
CCc1ccccc1NC(=O)c1ccccc1F	i

# Other entries follow:
SMILES,Mtb growth
O=C(Nc1ccc(S(=O)(=O)Nc2ccccn2)cc1)c1cccc(Br)c1,i
Cc1cccc(NC(=O)COc2ccc(/C=C\c3[nH]c(=O)[nH]c(=O)c3[N+](=O)[O-])cc2)c1,i
COc1ccccc1CC(=O)N1CC(C)OC(C)C1 (stereo not drawn),4%
C=CCNC(=O)CN(Cc1ccc(Br)cc1)S(=O)(=O)c1ccc(C)cc1,i
CC1(C)CC(=O)C(Sc2ccc(Br)cc2)C(=O)C1,i
Cc1ccc2c(Cl)c(C(=O)Nc3ccc(S(=O)(=O)Nc4onc(C)c4C)cc3)sc2c1,i
S=C(NC1CC1)N1CCc2ccccc2C1,i
O=C(Nc1ccc2c(c1)OCCO2)c1sc2ccccc2c1Cl,i
CC(NC(=O)Cc1ccccc1)c1ccccc1 (stereo not drawn),i
CS(=O)(=O)Nc1ccc(C2=NN(C(=O)C3CCCCC3)C(c3cccc(F)c3)C2)cc1 (stereo not drawn),?
Cc1ccc(C2=C(C#N)C(N)=C(C#N)C3=CCCCC32)c(C)c1 (stereo not drawn),1%
CCc1c(C)sc(NC(=S)NC2CCN(Cc3ccccc3)CC2)c1C(=O)OC,1.7µg/mL*
COc1ccc(NC(=S)Nc2nc3c(s2)CCCC3)cc1OC,5%
COc1cccc(NC(=O)CN(c2cccc(Cl)c2C)S(C)(=O)=O)c1,5%
CCN(CC)c1ccc(/C=N/NC(=O)CNc2ccc3ccccc3c2)c(O)c1,4%
O=C(CN1C(=O)C2C3c4ccccc4C(c4ccccc43)C2C1=O)Oc1ccc(Br)cc1 (stereo not drawn),49%
COc1ccc(C(=O)NC(=S)Nc2c(C)cccc2C)cc1Br,0%
COc1ccc(OCC(=O)N2CCN(S(=O)(=O)Cc3ccccc3)CC2)cc1,i
COC(=O)C1=C(C)NC2=C(C(=O)CC(c3ccc(F)cc3)C2)C1c1ccccc1Cl (stereo not drawn),3.6µg/mL*
Nc1nc2n(c1C(=O)c1ccccc1)CCC2,i
COc1cccc(N2CCN(Cc3nc(N)nc(Nc4ccc(C)c(Cl)c4)n3)CC2)c1,1.4µg/mL*
COc1cc(NS(=O)(=O)c2ccc(NC(=O)CSc3nc4sc(C)c(C)c4c(=O)[nH]3)cc2)nc(OC)n1,i
COc1cc(C(=O)Nc2ccc3oc(-c4cccc(F)c4)nc3c2)cc(OC)c1OC,i
COc1cccc(C(=O)NCCN=C2NS(=O)(=O)c3ccccc32)c1,i
Cc1cccc(Cn2nc(NC(=O)c3cccc(Cl)c3)cc2C)c1,47%

# Quoted at random: 4 records from the list.
SMILES,Mtb growth
CCc1c(C)sc(NC(=S)NC2CCN(Cc3ccccc3)CC2)c1C(=O)OC,1.7µg/mL*
O=C(Nc1ccc2c(c1)OCCO2)c1sc2ccccc2c1Cl,i
COc1ccccc1CC(=O)N1CC(C)OC(C)C1 (stereo not drawn),4%
Cc1ccc(C2=C(C#N)C(N)=C(C#N)C3=CCCCC32)c(C)c1 (stereo not drawn),1%

# Reformatted: 2 of the compounds above.
Molecule	Mtb growth
Cc1cccc(NC(=O)COc2ccc(/C=C\c3[nH]c(=O)[nH]c(=O)c3[N+](=O)[O-])cc2)c1	i
COc1ccccc1CC(=O)N1CC(C)OC(C)C1 (stereo not drawn)	4%

# (list continues)
SMILES,Mtb growth
COc1ccccc1NC(=O)c1ccc(NS(=O)(=O)c2cc(C)ccc2C)cc1,i
CC(=O)c1ccc(OC(=O)COc2ccc(Cl)cc2Cl)cc1,i
CN1CC(C(=O)Nc2cccc(S(=O)(=O)Nc3ccccc3)c2)CC1=O (stereo not drawn),i
CN1CCN(CCOc2cccc(C(C)(C)C)c2)CC1,i
CCOC(=O)c1c(NC(=O)Cn2cnc3sc(C(=O)Nc4ccccc4)c(C)c3c2=O)sc(C)c1C,42%
O=C(NCc1ccccn1)c1ccc(NS(=O)(=O)c2cccc(Cl)c2)cc1,i
CCS(=O)(=O)N1CCC(N(CCc2ccccc2)Cc2ccccc2)CC1,0%
CN(C)c1ccc(NC(=S)Nc2ccccc2F)cc1,i
O=C(c1cnn2cccnc12)N1CCN(c2ccccc2)CC1,i
CN(CC(=O)NC1CCCCC1)S(=O)(=O)c1cc(Cl)ccc1Cl,i

# In the list so far, 7 have a tert-butyl group:
SMILES,Mtb growth
COc1ccc(S(=O)(=O)Nc2ccc(S(=O)(=O)NC(C)(C)C)cc2)cc1,i
CC(C)(C)OC(=O)c1sc2nc3c(cc2c1N)CCCC3,7%
CCOc1ccccc1Oc1c(C)oc2cc(OC(=O)C(C)(C)C)ccc2c1=O,i
CC(C)(C)c1ccc(OC(=O)COc2ccc(Cl)cc2)cc1,10%
COc1cc(Br)cc2cc(C(=O)NC(C)(C)C)c(=O)oc12,i
Cc1nnc(SCC(=O)Nc2ccc(C(C)(C)C)cc2)s1,i
CN1CCN(CCOc2cccc(C(C)(C)C)c2)CC1,i
